# LASV entry inh: blocks Lassa virus binding to or entry into cells | AID 540256 | 300,000 compounds, 1.2% hits | Lassa virus pseudotype entry inhibition, cell reporter; control for the full effect not named in the record | Potency, µM (titrated, usually from 37.9 µM), for inactives: at the top dose activity change, negative = inhibition, usual class: inhibitors; active means well fitted inhibition curve with a large enough effect; inconclusive means small, poorly fitted or top-dose-only effect, or effect the other way; inactive means flat fitted curve, though single readings scatter; tested in HEK293 cells; further: on the % scale 0 is the no-effect control and ±100 the full control effect; nearly all actives have a fitted effect of over 50% in size; luciferase read-out
# NS1 function inh: blocks influenza NS1 protein function. S. cerevisiae slowed by influenza A NS1, growth recovery by OD600. Potency, µM (series often up to 46.1 µM), for the others: at the top dose activity, positive = more growth. 270,000 compounds, 0.4% hits. AID 2326; further: actives are rising curves; nearly all actives have a fitted effect of over 50% in size
#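 A cell-based growth assay was used: compounds that relieve NS1-induced slow growth of budding yeast raise OD600. Assay medium was yeast nitrogen base with ammonium sulphate and -URA supplement, pH 6.0, with 2% galactose.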
# RE007 growth inh: less growth of the S. pombe RE007 Vpr strain; AID 651644; Potency, µM (top dose mostly 92.2 µM), for the others: at the top dose activity change, negative = less growth; S. pombe RE007 Vpr strain, BacTiter-Glo ATP luminescence, 24 h; control for the full effect not named in the record; 360,000 compounds, 0.21% hits; active = well fitted falling curve with a large enough effect; inconclusive = small, poorly fitted or top-dose-only effect; inactive = no such curve, though single readings can be large or run the other way;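 further: on the % scale 0 is the no-effect control and ±100 the full control effect; nearly all actives have a fitted effect of over 50% in size; the assay follows cell death caused by Vpr and the record does not say whether a fall means rescue or toxicity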
#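 Fission yeast RE007 carrying one integrated HIV-1 vpr copy, seeded at OD 0.01 in PMG+AL medium with 23 nL pinned compound. Grown 24 h at 30 degrees; viability read by BacTiter-Glo luminescence after 5 min.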
# Marburg entry inh: Marburg virus entry inhibition; Potency, µM (doses to about 37.8 µM), without a hit: top-dose activity change, negative = inhibition, hits mostly inhibitors; 300,000 compounds, 1.8% hits; Marburg virus pseudotyped entry inhibition, cell reporter; control for the full effect not named in the record; about a third of the inactives were read at about 46 µM; active = well fitted inhibition curve with a large enough effect; inconclusive = small, poorly fitted or top-dose-only effect, or effect the other way; inactive = flat fitted curve, though single readings scatter; tested in HEK293 cells; about a fifth of its hits are not listed in these tables; further: on the % scale 0 is the no-effect control and ±100 the full control effect; luciferase read-out
# SARS PLpro yeast: blocks SARS-CoV papain-like protease in a yeast assay. S. cerevisiae expressing SARS-CoV PLpro, growth rescue; control for the full effect not named in the record. 330,000 compounds, 0.19% hits. Potency, µM (doses to about 32.9 µM), for the others: at the highest dose activity, positive = growth rescue; further: 0% is about no effect; nearly all actives have a fitted effect of over 55% in size; growth read by luminescence after 48 h
# Cruzain Triton: inhibitors of Trypanosoma cruzi cruzain with detergent; P25779; purified cruzain, Z-FR-AMC fluorescence, 0.01% Triton; Potency, µM, inactives show max response, negative = inhibition, usual class: inhibitors; 200,000 compounds, 0.43% hits; active means well fitted curve in the direction sought with a large enough effect; inconclusive means small, poorly fitted or top-dose-only effect, or another doubt; inactive means no such curve, though single readings can be large; an effect the other way counts as inactive or inconclusive;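 further: plate controls were neutral wells for no effect and buffer without enzyme for full effect; nearly all actives have a fitted effect of over 40% in size; top concentration of the series not given in the record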
# Target sequence (P25779 123-467 limits assumed): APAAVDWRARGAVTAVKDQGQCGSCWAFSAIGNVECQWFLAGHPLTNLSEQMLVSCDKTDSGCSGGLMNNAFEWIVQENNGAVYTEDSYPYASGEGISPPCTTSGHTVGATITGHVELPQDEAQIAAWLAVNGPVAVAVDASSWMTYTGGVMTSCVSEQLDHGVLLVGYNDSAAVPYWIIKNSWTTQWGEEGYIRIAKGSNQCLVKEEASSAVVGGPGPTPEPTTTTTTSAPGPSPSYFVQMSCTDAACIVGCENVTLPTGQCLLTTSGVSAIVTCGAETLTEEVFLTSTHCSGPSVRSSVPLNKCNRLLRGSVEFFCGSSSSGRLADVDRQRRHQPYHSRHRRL
#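 Enzyme 1.5 nM, Z-FR-AMC 2 uM, NaOAc 100 mM pH 5.5, DTT 5 mM, Triton X-100 0.01%; 15 min RT compound preincubation; kinetic ex360/em450, 60 s delta.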
# Cruzain inh noDet: cruzain (T. cruzi) inhibition without detergent. P25779. purified cruzain, Z-FR-AMC fluorescence, no detergent. Potency, µM, for the others: max response, negative = inhibition, hits mostly inhibitors. 200,000 compounds, 2.3% hits. AID 1476; active means well fitted curve in the direction sought with a large enough effect; inconclusive means small, poorly fitted or top-dose-only effect, or another doubt; inactive means no such curve, though single readings can be large; an effect the other way counts as inactive or inconclusive;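 further: plate controls were enzyme without inhibitor for no effect and buffer without enzyme for full effect; nearly all actives have a fitted effect of over 40% in size; top concentration of the series not given in the record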
#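 Purified cruzain at 1.5 nM, pre-incubated 15 min with compound at room temperature in 100 mM sodium acetate pH 5.5, 5 mM DTT, 0.00005% Triton X-100. Reaction started with 2 uM Z-FR-AMC; AMC fluorescence increase over 60 s gives rate.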
# StopGo reporter: FMDV 2A StopGo reporter, luciferase signal; human cells with a luciferase reporter of 2A StopGo recoding; control for the full effect not named in the record; Potency, µM (top dose mostly 57.9 µM), for inactives: at the highest dose signal change, negative = less light; 410,000 compounds, 1.2% hits; AID 1159524; active = well fitted falling curve with a large enough effect; inconclusive = small, poorly fitted or top-dose-only effect; inactive = no such curve, though single readings can be large or run the other way; tested in HEK293T cells; further: on the % scale 0 is the no-effect control and ±100 the full control effect; nearly all actives have a fitted effect of over 45% in size; luciferase light after 4 h
# Starred values were filed as active, the others as inactive; ? = inconclusive; nt = no result given; & = joins results of further samples; [ ] = another dose, or the depositor's remark. Unless noted, the call rests on the fitted dose curve; in most records, active means well fitted rising curve with a large enough effect; inconclusive means small, poorly fitted or top-dose-only effect; inactive means no such curve, though single readings can be large or run the other way. Potency means the concentration at half of the fitted maximal effect.
SMILES,LASV entry inh,NS1 function inh,RE007 growth inh,Marburg entry inh,SARS PLpro yeast,Cruzain Triton,Cruzain inh noDet,StopGo reporter
O=C(CN1C(=O)C2CCCCC2C1=O)N1CCN(c2ccccc2)CC1 (stereo not drawn),-19%[46.1 µM],4%,1%,?,0%,nt,nt,0%
CC(C)(C)c1ccc(C(=O)NCC(c2cccs2)S(=O)(=O)c2ccccc2)cc1 (stereo not drawn),?,nt,nt,nt,nt,-5.2%,0%,?
Cc1nn(CC(=O)NCCCN2CCN(Cc3ccccc3)CC2)c(=O)c2cc(-c3ccccc3)nn12,nt,-5%,-12%,nt,-3%,nt,nt,-24%
C=CC[C@H]1CC(C)=C[C@H](CC=C)N1,1%[46.1 µM],nt,-15%,-1%[46.1 µM],1%,nt,nt,1%
O=C(Cn1nc(C(F)(F)F)c2c1CCCC2)N1CCOCC1,0%[46.1 µM],3%,-2%,5%[46.1 µM],1%,nt,nt,1%
CC1CCC[C@H](O)CCCCCc2cc(O)cc(O)c2C(=O)O1 (stereo partly drawn),1%,-5%,-2%[18.4 µM],-29%,0%&2%,-15%,-15%,35µM*
Cc1ccc(-n2nc(-c3ccc(N)cc3)cc2N)cc1,4%,?,-6%,1%,-20%,-2.0%,-8%,3%
O=C(Nc1ccccc1C(=O)N1CCOCC1)c1ccc([N+](=O)[O-])cc1,nt,2%,-5%,nt,0%,nt,nt,-11%
COc1ccc(Sc2ccc(/C=C3\C(=O)NN(c4ccccc4)C3=O)o2)cc1,0%,-30%,1%,?,0%,-16%,0%,40µM*
COc1ccccc1-c1nn(CCC(=O)Nc2ccccc2)c2nc(C)cc(C)c12,-28%[46.1 µM],nt,nt,-1%[46.1 µM],nt,-8.9%,?,0%
CCCCNC(=O)CSc1nc2ccc(N3CCOCC3)cc2c(=O)n1CCc1ccccc1,12%,13%,3%,29%,2%,-6.4%,?,-22%
COc1ccc(NC(=S)N(CCN2CCOCC2)Cc2cc3cc4c(cc3[nH]c2=O)OCCO4)cc1,-4%[46.1 µM],-2%,2%,-19%[46.1 µM],-1%,nt,nt,1%
Cc1ccc(C(=O)N2CCOCC2)cc1S(=O)(=O)N1CCCC1,6%,12%,-7%,-6%,-4%,nt,nt,-1%
OCC1(CC2CCCCO2)CCN(Cc2cccc(O)c2)CC1 (stereo not drawn),nt,2%,0%,nt,1%,nt,nt,-8%
COc1ccc(/C(C)=N/NC(=O)C(NC(=O)c2ccccc2)c2n[nH]c(=O)c3ccccc23)c(OC)c1 (stereo not drawn),1%,2%,20%,5%[46.1 µM],-2%,nt,nt,-13%
Cc1ccc(C(=O)N/N=C/C2=Cc3ccccc3OC2C)cc1 (stereo not drawn),?,-18%,7%,-23%,-70%,-14%,5%,4%
CCC(CC)COC(=O)C1=C(C)NC(=O)NC1c1ccc(OC)cc1 (stereo not drawn),?,?,16%,-14%,-3%,nt,nt,?
C=CCN(C(=O)c1csnn1)C(C(=O)NC1CCCC1)c1ccc(OC)cc1 (stereo not drawn),?,3%,20%,9%[46.1 µM],3%,nt,nt,14%
COc1cc(C(=O)NNC(=O)c2nn(C)c(=O)c3ccccc23)cc(OC)c1OC,0%,nt,10%,?,2%,nt,nt,-5%
Cc1cnc(NC(=O)c2cccs2)s1,?,-40%,2%,?,-3%,nt,nt,1%
Cn1c(C(=O)N2CCCC2)cc2c(=O)n(C)c3ccccc3c21,nt,-3%,2%,nt,12%,1.5%,-6%,-2%
O=C(NCCc1ccccc1)c1cccnc1N1CCCCCC1,8%,-52%,5%,-27%,-2%,-1.3%,-1%,nt
Cc1ccc(Br)cc1S(=O)(=O)N1CCN(c2ccccc2)CC1,-26%,-21%,-10%,?,-11%,-0.1%,7%,-7%
Cc1cccc(-c2cc(C(=O)O)c3c(-c4ccc(F)cc4)[nH]nc3n2)c1,-4%[46.1 µM],nt,nt,nt,nt,-6.3%,-8%,31%[activator]
Cc1ccc(-n2c(SCc3nc(-c4ccc(Cl)cc4)no3)nnc2-c2ccncc2)cc1,-18%[46.1 µM],nt,nt,?,nt,-7.2%,0%,?

# Four entries already listed, sorted by molar mass, rising.
SMILES,LASV entry inh,NS1 function inh,RE007 growth inh,Marburg entry inh,SARS PLpro yeast,Cruzain Triton,Cruzain inh noDet,StopGo reporter
CC1CCC[C@H](O)CCCCCc2cc(O)cc(O)c2C(=O)O1 (stereo partly drawn),1%,-5%,-2%[18.4 µM],-29%,0%&2%,-15%,-15%,35µM*
Cc1ccc(C(=O)N2CCOCC2)cc1S(=O)(=O)N1CCCC1,6%,12%,-7%,-6%,-4%,nt,nt,-1%
COc1ccc(Sc2ccc(/C=C3\C(=O)NN(c4ccccc4)C3=O)o2)cc1,0%,-30%,1%,?,0%,-16%,0%,40µM*
Cc1nn(CC(=O)NCCCN2CCN(Cc3ccccc3)CC2)c(=O)c2cc(-c3ccccc3)nn12,nt,-5%,-12%,nt,-3%,nt,nt,-24%

# Back to the main list with the 2 entries that preceded the break.
SMILES,LASV entry inh,NS1 function inh,RE007 growth inh,Marburg entry inh,SARS PLpro yeast,Cruzain Triton,Cruzain inh noDet,StopGo reporter
Cc1cccc(-c2cc(C(=O)O)c3c(-c4ccc(F)cc4)[nH]nc3n2)c1,-4%[46.1 µM],nt,nt,nt,nt,-6.3%,-8%,31%[activator]
Cc1ccc(-n2c(SCc3nc(-c4ccc(Cl)cc4)no3)nnc2-c2ccncc2)cc1,-18%[46.1 µM],nt,nt,?,nt,-7.2%,0%,?
O=C(NCCc1ccccc1)C1CCCN(c2ncnc3c2nc2n3CCCCC2)C1 (stereo not drawn),-3%[46.1 µM],-25%,-2%,-7%[46.1 µM],2%,nt,nt,-8%
CCc1cccc(C)c1NC(=O)CSc1nnc(CC)n2c1cc1occc12,-1%[46.1 µM],nt,nt,nt,nt,-5.2%,-1%,22µM*
COC(=O)CC1C(=O)NCCN1C(=O)Nc1ccc(Cl)cc1 (stereo not drawn),12%,-3%,8%,8%,3%,4.6%,1%,-3%
Cc1ccccc1C(=O)NCCNc1ccc([N+](=O)[O-])cc1,nt,-5%,6%,nt,0%,nt,nt,-18%
Cc1ccsc1C(=O)OCC(=O)NCCNC(=O)COC(=O)c1sccc1C,-13%,nt,0%,?,-7%,nt,nt,-15%
COC(=O)COc1cc(OCC(=O)OC)c2c(C)c(Cl)c(=O)oc2c1,11%,-1%,21%,11%,0%,-1.2%,?,-28%
O=C(NC1CC(=O)N(c2ccc(Cl)cc2)C1)c1cccs1 (stereo not drawn),-19%[46.1 µM],nt,nt,nt,nt,-2.8%,-3%,-11%
COc1ccc(CNc2ncnc3cc(Cl)ccc23)cc1OC,?,-3%,2%,?,-1%,nt,nt,?
CC12CCC3C(CC=C4CC(O)CCC43C)C1CC(=CN1CCOCC1)C2=O (stereo not drawn),10%[46.1 µM],nt,-6%,-5%[46.1 µM],nt,nt,nt,-3%
Cc1cnc(C(=O)Nc2ccc(S(=O)(=O)N(C(C)C)C(C)C)cc2)cn1,nt,-2%,0%,nt,7%,nt,nt,5%
CC(C)(C)NC(=O)NC(=O)CN1C(=O)NC(C)(c2ccccc2)C1=O (stereo not drawn),-24%,-10%,?,6%[46.1 µM],-2%,nt,nt,-20%
Cc1onc(-c2c(F)cccc2Cl)c1C(=O)N(Cc1ccccc1)C(C)C,?,-8%,6%,?,2%,nt,nt,-4%
CCn1cc(C(=O)OCC(=O)Nc2cccc(Cl)c2C)c(=O)c2ccc(C)nc21,14%[46.1 µM],nt,nt,4%[46.1 µM],nt,-1.8%,0%,-15%
Fc1ccc(-c2ncc3ccccn23)cc1,21%,0%,7%,12%,0%,nt,nt,32%[activator]
Cc1ccccc1NC(=O)c1ccccn1,nt,-2%,1%,nt,0%,nt,nt,39%[activator]
COC(=O)Nc1ccc(S(=O)(=O)N2CCCCC2C(=O)O)cc1 (stereo not drawn),-21%[46.1 µM],0%,3%,3%[46.1 µM],0%,nt,nt,7%
CC1CCCC(C)N1C(=O)CSc1nccc(=O)[nH]1 (stereo not drawn),nt,-1%,-4%,nt,0%,nt,nt,0%
Cc1ccc(Oc2cc(NC(=O)CCCn3nc([N+](=O)[O-])cc3C)cc([N+](=O)[O-])c2)cc1,-22%,14%,-1%,?,8%,-6.4%,3%,?
COC(=O)c1ccc(/C=N/OCC(=O)NC2CCCC(C)C2C)cc1 (stereo not drawn),?,-9%,-4%,-25%[46.1 µM],6%,-0.2%,-7%,?
COCCNC(=O)C1CC(c2ccccc2[N+](=O)[O-])=NO1 (stereo not drawn),nt,1%,-2%,nt,-5%,2.9%,0%,5%
O=C(Nc1ccc2c(c1)OCCO2)c1ccoc1,14%,1%,4%,-6%,-2%,nt,nt,61%[activator]
CCN(CC)c1ccc2c(C)c(-c3ccc(N)cc3)c(=O)oc2c1,10µM*,22%,64%,?,-9%,-9.9%,?,0%
CCOc1cc(CNCCO)cc(Br)c1OCc1ccc(Cl)cc1,?,-25%,-6%,?,-7%,4.0%,3%,?

# From PubChem BioAssay

# Outcome played no part in choosing rows (roughly 4.6% active in at least one column).
